gsp antagonist = antagonists of gsp mutant (McCune-Albright syndrome); gsp-mutant cells, cAMP HTRF, 30 min; control for the full effect not named in the record; Potency, µM (top dose mostly 76.9 µM), for inactives: at the top dose activity change, negative = inhibition, usual class: inhibitors; 340,000 compounds, 0.4% hits; AID 624288; active = falling curve of any shape with a large fitted effect; inconclusive = falling curve, mostly with a smaller effect; inactive = flat or rising curve; cell line not stated here;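 note: intracellular cAMP measured with PDE inhibitor Ro 20-1724 present during compound exposure; potency is the fitted concentration of half-maximal effect; % is set by controls: 0 for no effect and ±100 for the full control effect; nearly all actives have a fitted effect of over 65% in size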
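Cells, 2000/well, grown 16–24 h in DMEM 10% FBS with 0.5 mg/ml G418, then compounds plus […] (300 uM addition stock), 30 min at 37C. cAMP read by HTRF (cAMP-d2 and anti-cAMP antibody-K in lysis buffer) after 30 min RT.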
ClpP mod = qHTS Assay for Activators of ClpP; ATP-dependent Clp protease proteolytic subunit (Bacillus subtilis (strain 168)), P80244; purified B. subtilis ClpP, FRET peptide cleavage, 20 min; Potency, µM (series often up to 57.5 µM), inactives show at the highest dose activity change, negative = active; 340,000 compounds, 1.9% hits; active = well fitted falling curve with a large enough effect; inconclusive = small, poorly fitted or top-dose-only effect; inactive = no such curve, though single readings can be large or run the other way; note: potency is the fitted concentration of half-maximal effect; the source files actives as falling curves though it sought activators and does not explain the sign; nearly all actives have a fitted effect of over 65% in size; many hits overshoot -100%
Target sequence (P80244 whole entry, looked up): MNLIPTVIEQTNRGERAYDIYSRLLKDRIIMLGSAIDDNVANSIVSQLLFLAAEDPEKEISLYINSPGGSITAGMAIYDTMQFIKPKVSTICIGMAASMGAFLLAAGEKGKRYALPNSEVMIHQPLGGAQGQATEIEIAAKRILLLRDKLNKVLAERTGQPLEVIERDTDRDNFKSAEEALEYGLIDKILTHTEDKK
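Purified B. subtilis ClpP, 10 microg/mL final in Tris/HCl pH8 with KCl, BSA, glycerol and Tween-20, cleaved an Abz/nitrotyrosine-quenched decapeptide. Fluorescence (ex 320, em 430) was read at 0 and 20 min at room temperature. Delta was normalized to 5.8 microM ADEP and DMSO/no-enzyme controls.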
TRPV1 PAM = potentiators of human vanilloid receptor 1 (TRPV1); potentiation, % at 8.33 µM; AID 540277; 320,000 compounds, 0.02% hits; TRPV1-expressing cells, Fluo-8 calcium influx, capsaicin EC20 potentiation; host cell line not named in the record; control for the full effect not named in the record; active means potentiation above 80%; inconclusive means 30% to 80%; inactive means below 30%; note: 0% is about no effect
Target sequence (Q8NER1 whole entry, looked up): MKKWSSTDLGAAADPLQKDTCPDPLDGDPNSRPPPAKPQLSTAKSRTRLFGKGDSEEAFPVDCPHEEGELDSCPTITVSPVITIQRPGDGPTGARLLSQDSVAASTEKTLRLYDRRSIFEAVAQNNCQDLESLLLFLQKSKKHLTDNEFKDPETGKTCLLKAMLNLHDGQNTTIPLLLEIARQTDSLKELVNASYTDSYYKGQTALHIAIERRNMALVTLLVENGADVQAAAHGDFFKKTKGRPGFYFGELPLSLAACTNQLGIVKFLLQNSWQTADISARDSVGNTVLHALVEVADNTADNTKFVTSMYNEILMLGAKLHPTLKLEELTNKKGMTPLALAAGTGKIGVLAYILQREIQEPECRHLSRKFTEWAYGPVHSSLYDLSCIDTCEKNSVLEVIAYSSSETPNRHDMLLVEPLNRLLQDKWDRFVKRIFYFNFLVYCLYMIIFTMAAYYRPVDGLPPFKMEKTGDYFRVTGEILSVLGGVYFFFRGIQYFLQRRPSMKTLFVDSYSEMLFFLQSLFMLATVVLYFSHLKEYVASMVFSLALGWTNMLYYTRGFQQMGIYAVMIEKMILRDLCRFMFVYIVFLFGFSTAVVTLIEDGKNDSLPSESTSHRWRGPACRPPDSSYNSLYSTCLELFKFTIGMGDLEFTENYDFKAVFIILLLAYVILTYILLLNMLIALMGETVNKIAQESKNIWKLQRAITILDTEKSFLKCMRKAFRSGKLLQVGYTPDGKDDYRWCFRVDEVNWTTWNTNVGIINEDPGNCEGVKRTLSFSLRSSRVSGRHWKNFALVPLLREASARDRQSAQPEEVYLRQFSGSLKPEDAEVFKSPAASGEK
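TRPV1-expressing cells were cultured overnight at 35.5C and loaded with Fluo-8 calcium dye for 40 to 90 min at room temperature. After a 10 s baseline, compound was added and calcium influx was read kinetically for 3 min (ex 480/em 520 nm).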
CtBP-E1A inh = blocks the CtBP interaction with E1A; AlphaScreen GST-E1A/His-CtBP binding, 1536-well; stronger effect = lower value; control for the full effect not named in the record; activity change, % (concentration not given with the values); 340,000 compounds, 0.49% hits; in the data active means activity change below about -65%; inconclusive means about -30% to -65%; inactive means above about -30%; note: % is set by controls: 0 for no effect and ±100 for the full control effect
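AlphaScreen with 125 nM GST-E1A and 125 nM His-CtBP (5X stocks) in Tris pH 8.0, 300 mM NaCl, BSA, Tween 20, TCEP. Compounds preincubated 2 h at 37 deg C, then glutathione donor/nickel acceptor beads added for 1 h at 37 deg C in dark.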
Menin-MLL FL inh = inhibitors of human menin-MLL interaction, wild-type MLL peptide; FP activity change, % at 61.4 µM; Fluorescence polarization, fluorescein-MLL peptide displacement from menin; 290,000 tested, under 10 active; inconclusive = falling polarisation curve, or a change in total fluorescence; inactive = total fluorescence flat and polarisation flat or rising; no compound was filed as active; the % refers to the polarisation; negative = inhibition;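 note: % of control where 0% means no effect; inhibitors lower the polarisation; unlabelled MLL peptide was the positive control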
Sfp inh = blocks B. subtilis Sfp PPTase activity | Q9F4F7 | Biochemical Sfp PPTase activity, qHTS | Potency, µM, for inactives: max response, negative = inhibition, usual class: inhibitors | 310,000 compounds, 3.5% hits | AID 1490; active = well fitted inhibition curve with a large enough effect; inconclusive = small, poorly fitted or top-dose-only effect, or another doubt; inactive = no such curve, though single readings can be large or run the other way;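 note: the enzyme is Sfp with the accession as filed and its product quenches rhodamine fluorescence; potency is the fitted concentration of half-maximal effect; 0% = enzyme reaction without inhibitor and -100% = no enzyme wells; top concentration of the series not given in the record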
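Compounds were incubated with enzyme (final 15 nM) for 15 min at room temperature before substrate addition started the reaction. Fluorescence at 525 nm excitation, 598 nm emission was recorded immediately and after 30 minutes.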
gsp agonist = gsp mutant agonism | Potency, µM (highest dose often 76.9 µM), for the others: at the top dose activation (cAMP increase), most hits filed as activators | gsp mutant cells, cAMP HTRF, 30 min; control for the full effect not named in the record | 340,000 compounds, 0.13% hits | AID 624287; active = well fitted activation curve with a large enough effect; inconclusive = small, poorly fitted or top-dose-only effect, or another doubt; inactive = no such curve, though single readings can be large or run the other way; cell line not stated here;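 note: phosphodiesterase inhibitor Ro 20-1724 added with compounds to block cAMP breakdown; potency is the fitted concentration of half-maximal effect; nearly all actives have a fitted effect of over 60% in size; about a fifth of the inactives were tested at one dose only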
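Cells stably selected in G418 were plated at 2000/well, grown 16-24 hr, then given compounds in DMSO with the PDE inhibitor […] (300 uM solution added) for 30 min at 37C; cAMP was read by HTRF.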
An asterisk follows results filed as active; ? = inconclusive; nt = not tested or not shown; ! = not confirmed by another sample; [ ] = dose if it differs, or a comment.

SMILES	gsp antagonist	ClpP mod	TRPV1 PAM	CtBP-E1A inh	Menin-MLL FL inh	Sfp inh	gsp agonist
O=c1cc(CN2CCN(S(=O)(=O)c3ccc4ccccc4c3)CC2)nc2sccn12	-7%	nt	0	5	-20	8%	-1%
O=C(Cc1c(F)cccc1Cl)NNC(=O)c1ccc(Br)s1	4%	2.1%	nt	13	nt	nt	10%
COc1ccc(Br)cc1/C=N/n1c(C)nnc1C	-2%	-13%	-5	-2	2.7	9%	22%
Cc1ccc2c(c1)C(CCN)C(=O)N2Cc1ccccc1 (stereo not drawn)	-1%	-2.4%	-1	-1	5.1	-26%	-20%
O=C(CSc1ccc(F)cc1)Nc1ccc(N2CCOCC2)c(Cl)c1	5%	-1.2%	-24	-5	nt	0%	-27%
COc1cc(CO)ccc1OCC(=O)N1CCc2ccccc21	1%	0.2%	5	6	0.8	18%	2%
COc1ccc(OCC(=O)Nc2ccc3c(c2)nc(CCN2CCCCC2)n3C)cc1	1%	-5.7%	6	2	-4.3	5%	-46%[inhibitor]
Cc1ccc(C(=O)Nc2nc3ccccc3[nH]2)cc1	-5%	nt	-4	-6	-5.6	16%	-1%[15.4 µM]
O=C1CCCC2=C1C(c1ccco1)Nc1ccc(C(=O)c3ccccc3)cc1N2 (stereo not drawn)	-8%	1.0%	17	-12	6.1	-22%	5%
CS(=O)(=O)c1ccc(C(=O)Nc2ccc(N3CCCC3)cc2)c(Cl)c1	4%	nt	3	-2	-0.5	2%	11%
O=C(CCS(=O)(=O)c1ccc2c(c1)NC(=O)CS2)NCc1cccs1	12%	0.7%	18	3	-0.1	8%	0%
CCCOc1ccccc1NC(=O)/C=C/C(N)=O	-2%	1.1%	2	4	2.1	-25%	15%
CCCCNC(=O)N1c2ccccc2CC1C (stereo not drawn)	7%	nt	-3	2	-0.3	20%	-14%
COC(=O)[C@@H](NC(=O)N1CCN(C(=O)C2COc3ccccc3O2)CC1)C(C)C (stereo partly drawn)	-2%	-0.1%	10	3	3.9	15%	-38%
O=C(NCc1cccc(Cl)c1)c1ccc2nc(N3CCOCC3)sc2c1	-12%	-13%	-11	-1	2.4	-3%	-45%[inhibitor]
CCOC(=O)c1[nH]c2ccc(OC)cc2c1NC(=O)C(C)N1CCSCC1 (stereo not drawn)	nt	nt	-17	nt	-0.3	4%	nt
CCc1noc(C)c1C(=O)N(Cc1ccccc1)c1c(N)n(CCOC)c(=O)[nH]c1=O	5%	-11%	14	-20	nt	nt	-33%[inhibitor]
CCOC(=O)Cn1c(=NC(=O)C2COc3ccccc3O2)sc2cc(S(N)(=O)=O)ccc21 (stereo not drawn)	?	-0.8%	-23	3	4.1	12%	-44%[inhibitor]
CN(C(=O)COC(=O)c1cc(F)c(F)cc1Cl)c1ccccc1	-2%	nt	-15	7	nt	12%	-12%
Cc1nc2ccc(NC(=O)c3cccs3)cc2c(=O)n1Cc1ccc(Cl)cc1	-8%	-3.9%	1	10	-2.0	6%	11%
Cn1c(SCC(=O)Nc2cccc(Br)c2)nnc1-c1cc2ccccc2o1	-6%	11%	-5	9	1.5	8%	?
COc1ccccc1CNC(=O)CS(=O)Cc1nc(-c2ccc(OC)c(OC)c2)oc1C (stereo not drawn)	-19%	32µM*!	3	nt	4.9	10%	3%
CCOc1ccccc1N1CCN(C(=O)c2ccc(Cl)c(S(=O)(=O)N3CCCCC3)c2)CC1	-32%	-0.7%	-11	3	nt	nt	3%
CC1(C(=O)OCC(=O)Nc2ncc(Cl)cc2Cl)CC1(Cl)Cl (stereo not drawn)	4%	-3.0%	-21	-26	nt	nt	34%
Cc1ccc(NC2CCCN(C(=O)c3cccs3)C2)cc1C (stereo not drawn)	-3%	-2.1%	-17	nt	nt	3%	15%
Cc1cc(C)cc(Oc2ccccc2C=O)c1	4%	-3.6%	nt	10	-7.1	-6%	13%
CCC(C)C(=O)OC1CCC=C2C=CC(C)C(CCC3CC(O)CC(=O)O3)C21 (stereo not drawn)	-12%	1.2%	nt	1	nt	nt	3%
COC(=O)c1ccc(CNC(=O)c2ccc3c(c2)OCCO3)cc1	-14%	nt	-15	-1	10	4%	?
O=C(CSc1nnnn1-c1cccc(O)c1)NC1CC1	5%	-0.4%	1	4	1.8	-3%	7%
Cc1ccc(C(=O)c2ccccc2C(=O)O)s1	-4%	-0.6%	-11	8	-0.7	18%	20%
CCOC(=O)C1CCCN(CCC(=O)Nc2ccc(Br)c(C)c2)C1 (stereo not drawn)	2%	0.1%	-5	nt	-1.3	11%	-26%
O=C(NCC1CCCO1)c1ccccc1NC(=O)c1cccc2ccccc12 (stereo not drawn)	-6%	0.9%	-9	0	4.5	1%	8%
Cc1cc(=O)oc2cc3oc(=O)cc(C)c3cc12	-6%	-20%	-6	nt	-1.3	0%	-23%
CCOc1ccc(NC(=O)CN(C)C(=O)c2cccc3ccccc23)cc1OCC	-22%	-1.4%	8	0	nt	nt	-15%
CCN(CC)CCNc1nc2c(c(=O)[nH]c(=O)n2C)n1CCCc1ccccc1	10%	0.9%	2	7	-6.4	15%	0%
CC(C)=C(NC(=O)c1ccccc1)C(=O)N/N=C(\C)c1ccccc1O	16%	8.2%	11	3	3.9	17%	13%
COc1ccc(OC)c(-c2nn(-c3ccccc3)cc2C(=O)NCC(c2cccs2)N2CCOCC2)c1 (stereo not drawn)	-26%	-7.6%	-4	3	nt	nt	-6%
CN1CCC(OC(=O)c2ccc(Br)cc2)CC1	10%	-0.9%	nt	4	nt	nt	0%
COc1ccc(C(=O)n2c(N)nc3ccccc32)cc1OC	2%	-13%	29	-22	-8.3	?	-2%[15.4 µM]
Cc1ccc(COC(=O)Cc2coc3cc(O)ccc23)cc1	5%	17%	-5	1	0.4	-1%	-48%[inhibitor]
CN(CCc1cn[nH]c1)Cc1nc(Cc2ccccc2)no1	11%	nt	-8	4	-1.2	5%	0%[15.4 µM]
CCC(=O)C1CCCN(C(=O)c2cccc(OC3CCN(S(C)(=O)=O)CC3)c2)C1 (stereo not drawn)	8%	-1.0%	nt	0	nt	nt	0%
Cc1ccc(/C=C/c2onc(C)c2S(=O)(=O)N2CCC(C(=O)N3CCCCC3)CC2)cc1	-15%	?	-7	3	-2.0	-7%	?
COc1ccc(S(=O)(=O)N2CCCN(S(=O)(=O)c3ccc(OC)cc3C)CC2)c(C)c1	?	0.5%	-10	9	0.9	3%	-46%[inhibitor]
Cc1cc(Sc2ccc([N+](=O)[O-])cn2)ccc1Br	13%	1.1%	nt	-2	nt	nt	7%[15.4 µM]
O=C(CN1C(=O)/C(=C/c2cccc(Br)c2)SC1=S)N1CCCC1	16%	-0.2%	10	2	8.3	-2%	5%[15.4 µM]
COc1cccc(-c2ncc3ccccn23)c1	-4%	?	-19	-1	4.3	-8%	-7%
CCN(C(=O)COC(=O)C1CCC(C(C)(C)C)CC1)c1c(N)n(Cc2ccccc2)c(=O)[nH]c1=O (stereo not drawn)	12%	-0.7%	nt	-13	nt	nt	-5%
O=C(Cc1ccccc1Cl)c1ccccc1	6%	nt	nt	11	nt	nt	-2%
CNS(=O)(=O)c1cccc(C(=O)OCC(=O)c2ccc3c(c2)OCCO3)c1	-12%	nt	-6	-1	nt	nt	17%[15.4 µM]
CCN(Cc1ccccc1)S(=O)(=O)c1cc(C(=O)OC)n(C)c1	6%	-0.4%	-20	3	-3.4	14%	4%
NC(=O)C1CCN(C(=O)CSc2nc3ccccc3[nH]2)CC1	5%	0.3%	14	2	5.6	13%	-19%
CC(C)(C)S(=O)N1Cc2ccc(CO)cc2[C@@H]1CCO (stereo partly drawn)	11%	-1.5%	nt	34	nt	nt	nt
NS(=O)(=O)c1cccc(NC(=O)CSc2nc3nc(-c4cccs4)cc(C(F)(F)F)c3c(=O)[nH]2)c1	-21%	3.1%	10	-22	-2.1	0%	-81%[inhibitor]
CC(C)CCOP(=O)(c1ccc(N(C)C)cc1)C(O)c1ccccn1 (stereo not drawn)	0%	-7.0%	26	-5	-1.9	-2%	12%
O=C(c1ccccn1)N1CCCC(N2CCN(c3ccccc3)CC2)C1 (stereo not drawn)	-6%	0.6%	-1	2	nt	10%	?
COCc1cc(=O)[nH]c2cc(NC(=O)C(F)(F)F)c(C)cc12	-2%	138%	1	9	2.4	1%	-5%
O=C(COc1ccccc1)NCc1ccccc1	8%	0.9%	-9	36	-1.8	13%	-36%[inhibitor]
CN(Cc1ccccc1)C(=O)C1CCN(S(=O)(=O)c2cccc3nonc23)CC1	-13%	nt	18	1	5.3	20%	6%[15.4 µM]

Entries of single compounds as entered above. Screens in order: gsp antagonist, ClpP mod, TRPV1 PAM, CtBP-E1A inh, Menin-MLL FL inh, Sfp inh, gsp agonist
`CCOC(=O)c1[nH]c2ccc(OC)cc2c1NC(=O)C(C)N1CCSCC1` (stereo not drawn) as listed: nt, nt, -17, nt, -0.3, 4%, nt
`Cc1cc(=O)oc2cc3oc(=O)cc(C)c3cc12` as listed: -6%, -20%, -6, nt, -1.3, 0%, -23%
`COCc1cc(=O)[nH]c2cc(NC(=O)C(F)(F)F)c(C)cc12` as listed: -2%, 138%, 1, 9, 2.4, 1%, -5%
`CCCCNC(=O)N1c2ccccc2CC1C` (stereo not drawn) as listed: 7%, nt, -3, 2, -0.3, 20%, -14%

From PubChem BioAssay
